HPGD block: inhibitors of human 15-hydroxyprostaglandin dehydrogenase (HPGD). Potency, µM, for inactives: at the top dose activity change, negative = inhibition, most hits filed as inhibitors. P15428. purified HPGD, NADH fluorescence kinetic, PGE2 substrate. hit rate 4.3% among 150,000; active = well fitted inhibition curve with a large enough effect (not every such curve was filed as active); inconclusive = small, poorly fitted or top-dose-only effect, or another doubt; inactive = no such curve, though single readings can be large or run the other way;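 note: top concentration of the series not given in the record; plate controls included wells without enzyme; inactives centre near -10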
Target sequence (P15428 whole entry, looked up): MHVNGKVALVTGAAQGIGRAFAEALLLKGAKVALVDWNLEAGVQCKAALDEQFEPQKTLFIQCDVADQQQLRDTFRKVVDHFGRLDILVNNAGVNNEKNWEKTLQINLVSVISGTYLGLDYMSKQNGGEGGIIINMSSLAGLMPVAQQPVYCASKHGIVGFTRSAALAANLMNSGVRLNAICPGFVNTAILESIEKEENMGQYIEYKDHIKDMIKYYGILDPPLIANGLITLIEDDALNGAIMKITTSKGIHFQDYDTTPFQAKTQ
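NADH formation kinetics: reaction with 30 uM PGE2 and 1 mM NAD+ (final), 20 nM enzyme, Tris-HCl pH 8 with Tween 20, after 15 min compound preincubation at room temperature. Fluorescence change, last versus first of five reads.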
* hit, by the source's call; ? = inconclusive; & = joins results of further samples. % is set by controls: 0 for no effect and ±100 for the full control effect; potency is the fitted concentration of half-maximal effect. Only part of the results is shown. The share of hits here may be higher or lower than overall.

| compound | HPGD block |
| --- | --- |
| COc1cc(NS(=O)(=O)c2ccc(OC)c(OC)c2)cc(OC)c1 | -9.9% |
| Cc1ccc(C(=O)Oc2ccc([N+](=O)[O-])cc2)cc1S(=O)(=O)N1CCCCCC1 | -6.8% |
| CCCCOc1ccc(C(=O)N/C(=C/C=C/c2ccccc2)C(=O)NCCO)cc1 | -9.5% |
| O=C(Nc1ccc(OCc2ccccc2)cc1)c1cccnc1 | -19.2% |
| c1ccc(-c2cc(N3CCCCC3)nc(-c3ccccc3)n2)cc1 | ? |
| O=C(Nc1ccccn1)[C@@H]1CCC(=O)N1C(=O)OCc1ccccc1 | -10.4% |
| CS(=O)(=O)Nc1ccccc1C(=O)Nc1ccc2c(c1)OCCO2 | -17.4% |
| CCOC(=O)N1CCN(c2c(NCc3cccs3)c(=O)c2=O)CC1 | 28.2µM* |
| Cc1cc2n(n1)SC(Nc1ccc(F)c(Cl)c1)N2 (stereo not drawn) | -28.4% |
| CC(NC(=O)COC(=O)/C(=C/c1cccs1)c1cccs1)c1ccccc1 (stereo not drawn) | -22.3% |
| CCCCCCNc1c(C(=O)OCC)c(=O)[nH]c2ccccc12 | -0.7% |
| N=C(N)CCNC(=O)[C@@H]1CCC(N)=N1 | -6.8% |
| CCOC(=O)c1[nH]c2cc(OC)c(OC)cc2c1NC(=O)CN1CCN(C)CC1 | ? |
| Cc1cccc(/C=C2\CCC(C3CCCC3)C2=O)c1 (stereo not drawn) | -24.9% |
| COc1cc(CNc2ncn[nH]2)cc(Br)c1OC | -1.3% |
| CCn1cc(C(=O)NCc2ccco2)c2cc(OC)c(OC)cc2c1=O | ? |
| CNC(=S)N1CCN(c2c(F)cc3c(=O)c(C(=O)O)cn(C4CC4)c3c2OC)CC1C (stereo not drawn) | ? |
| CCOC(=O)C1CCN(C(=O)N2CCOCC2)CC1 | 0.5% |
| O=C(O)c1cc(N2C(=O)C3C4C=CC(C4)C3C2=O)ccc1NCc1cccnc1 (stereo not drawn) | ? |
| O=C(NCc1nnc(SCC(=O)N2CCN(c3ccccc3)CC2)o1)c1ccco1 | -10.5% |

Pulled by structure from the entries so far (3):
| compound | HPGD block |
| --- | --- |
| CNC(=S)N1CCN(c2c(F)cc3c(=O)c(C(=O)O)cn(C4CC4)c3c2OC)CC1C (stereo not drawn) | ? |
| O=C(Nc1ccc(OCc2ccccc2)cc1)c1cccnc1 | -19.2% |
| COc1cc(CNc2ncn[nH]2)cc(Br)c1OC | -1.3% |

Next results
| compound | HPGD block |
| --- | --- |
| O=C(Nc1ccccc1)N1CCC2(CC1)CCN(S(=O)(=O)c1ccccc1)CC2 | -7.6% |
| O=C1CN(C(=O)c2ccc(Br)o2)C(c2ccccc2)c2cc(Cl)ccc2N1 (stereo not drawn) | -16.4% |
| Nc1nc(C2CC(=O)OC23CCCCC3)cs1 (stereo not drawn) | -7.4% |
| Clc1ccc2oc3c(Cl)ncnc3c2c1 | -17.0% |
| N#C/C(=C\c1ccc(O)c(O)c1)S(=O)(=O)c1ccccc1 | ? |
| COc1cc(CNCCSc2nnnn2C)cc(Br)c1OCc1ccc(F)cc1 | -18.1% |
| COC(=O)c1ccccc1NC(=O)CSc1nnnn1C | -5.2% |
| CCOC(=O)c1ccc2cccc(C)n2c1=O | -15.2% |
| Cc1ccc(S(=O)(=O)N2CCN(c3nc4ccccc4nc3-n3nc(C)cc3C)CC2)cc1 | ? |
| Brc1cccc(OCCOCCn2ccnc2)c1 | 5.2% |
| CCOC(=O)N1CCC(N(C(=O)Nc2ccccc2)C(C)CC)CC1 (stereo not drawn) | 0.8% |
| Cc1cc(C)c2c(n1)nn1c(-n3ccnc3)cc(C)nc21 | ? |
| O=C(O)c1cc(S(=O)(=O)Nc2ccc3oc(=O)sc3c2)ccc1O | -21.0% |
| COc1ccc(-c2nn(-c3ccccc3)cc2/C=C2/SC(=S)N(Cc3ccco3)C2=O)c(C)c1 | -9.5% |
| CCCCCCC(=O)OC1CC(C)(C)NC(C)(C)C1 | -5.6% |
| CCCc1[nH][nH]c(=O)c1C(c1cccc(Cl)c1)C(C#N)C#N (stereo not drawn) | 15.8µM* |
| COc1ccc(C2CC(=O)Oc3cc4c(cc32)OCO4)cc1 (stereo not drawn) | ? |
| O=C(NNS(=O)(=O)c1ccc2ccccc2c1)c1cccs1 | -3.9% |
| O=S(=O)(Nc1cnc2ccccc2c1)N1CCCCCC1 | -12.3% |
| Cc1onc(-c2c(F)cccc2Cl)c1C(=O)NC(=S)NC1CCSC1=O (stereo not drawn) | ? |
| COc1cnn(Cc2ccccc2)c(=O)c1SCc1ccccc1 | -5.4% |
| CCOC(=O)c1nnn(-c2nonc2OC)c1-c1ccccc1 | 8.91µM* |
| Cc1cc(C=O)c(C)n1-c1ccc(N2CCCC2)c([N+](=O)[O-])c1 | 14.1µM* |
| COc1ccc(C(=O)n2nc(-c3ccco3)nc2N)cc1 | ? |
| CC1CCCCN1C(=O)CSc1nc(N)cc(=O)[nH]1 (stereo not drawn) | -12.2% |
| CC(C)Oc1ccc(CNCCC2(C(C)C)CCOC(C)(C)C2)cc1 (stereo not drawn) | -7.1% |
| CCOc1cc(C2NC(=O)N(C)C(C)=C2C(=O)OC)cc(Br)c1O (stereo not drawn) | -21.8% |
| O=P(O)(c1ccccc1)c1ccccc1O | -1.4% |
| CCn1cc(C(=O)NCc2ccc3c(c2)OCO3)c(=O)c2cc(S(=O)(=O)N3CCOCC3)ccc21 | ? |
| C[N@@+]1(Cc2ccc(Cl)c(Cl)c2)CCC[C@@H]1c1ccc[n+](Cc2ccc(Cl)c(Cl)c2)c1 | -6.9% |
| Cn1cnc([N+](=O)[O-])c1Sc1ncnc2nc[nH]c12 | -10.6%&-12.4%&-6.9%&-9.8% |
| COC(=O)Cn1cc(C(=O)OC)cc(Br)c1=O | 1.3% |
| COc1ccc(CC(=O)N2CC(=O)N(CCc3ccccc3)C(=O)C2)cc1 | -15.6% |
| CCOC(=O)c1[nH]c(C)c(C(=O)Nc2cc(OC)ccc2OC)c1C | -12.1% |
| CCCc1cc(=O)oc2c(CN3CCOCC3)c(O)ccc12 | ? |
| COc1ccc(NC(=O)c2ccc(Br)o2)cc1 | -19.3%&-27.7% |
| COc1ccc(-n2c(Cc3cccn3C)nnc2SCC(=O)Nc2nc(C)cs2)cc1 | -7.0% |
| CC1=C/C(=N\NC(=O)c2ccccc2)CC1 | -13.0% |
| c1ccc(-c2nc(NCc3cccnc3)c3ccccc3n2)cc1 | -4.3% |
| O=C1CCC=C1C(O)CCc1ccccc1 (stereo not drawn) | -8.7% |
| CCOC(=O)C1=C(O)/C(=C\c2ccc(CNC(=O)C(=O)Nc3ccc(C)c(C)c3)o2)N=C1C | -6.9% |
| O=C(Nc1nc(-c2ccccc2)cs1)C1CCCCN1S(=O)(=O)c1ccc(Cl)cc1 (stereo not drawn) | -1.8% |
| COC(=O)c1cccc(NC(=O)c2ccco2)c1 | -16.1% |
| Cc1ccc(N(CCC(=O)O)S(=O)(=O)c2ccccc2)cc1 | -4.7% |
| O=C(CN1CCCCCC1)N1c2ccccc2Sc2ccc(C(F)(F)F)cc21 | -17.0% |
| COCC(=O)N1CCC2(CCCN(Cc3ccccc3OC)C2)CC1 | -6.2% |
| Cc1cc(Cl)ccc1NC(=S)NCc1ccccc1Cl | -16.1% |
| CC1=C(C(=O)OC(C)C)C(c2cccnc2)C2=C(CCCC2=O)N1 (stereo not drawn) | ? |
| Cc1cc(Cl)ccc1OCC(=O)NCCOC(=O)Nc1sc(=S)n(C)c1C | -8.4% |
| Cc1cc(S(=O)(=O)Nc2c(C)ccc3nsnc23)ccc1F | -0.1% |
| COc1ccc(-n2c(=O)c(-c3cccs3)nc3cnc(Oc4ccccc4)nc32)cc1 | -12.1% |
| CC(C)(C)c1ccc(OC(=O)c2ccc3snnc3c2)cc1 | -1.6% |
| Cc1onc(-c2ccccc2)c1C(=O)NNC(=S)NC(=O)c1ccc(Cl)cc1Cl | -5.7% |
| CCCc1ccc(Oc2c(-c3ccc(O)c(C)c3O)n[nH]c2C)cc1 | -8.9% |
| CCCOc1ccc(OCCN2CCCC(C)C2)cc1 (stereo not drawn) | -8.8% |
| CCCn1c(Nc2ccccc2C)nc2ccccc21 | -18.5% |
| Cc1cccc(CNc2ncncc2-c2cccc(C#N)c2)c1 | -23.5% |
| COc1ccc(CC(=O)OCc2nnc(C3COc4ccccc4O3)o2)cc1OC (stereo not drawn) | -6.9% |
| O=C(NCc1ccncc1)C1CCCCC1 | 1.5% |
| Cc1ccccc1N1C(=O)CN(Cc2sccc2C)C1=S | -10.0% |

The list goes on:
| compound | HPGD block |
| --- | --- |
| O=C(COc1ccc2ccccc2c1)N1CCN(C(=O)c2cccnc2)CC1 | -6.7% |
| CCOC(=O)C1=C(C)Nc2ccc(C)cc2S1 | -11.6% |
| Cc1cc(NC(=O)CCCSc2nc(-c3ccco3)cc(C(F)(F)F)n2)n(-c2ccccc2)n1 | ? |
| Nc1nc(CN2CCN(Cc3ccc4c(c3)OCO4)CC2)nc(Nc2ccccc2)n1 | -7.1% |
| N#CN=C1CCCCCN1CC(N)=O | -6.5% |
| C=CCn1c(SCC(=O)N2CCN(C(=O)c3ccco3)CC2)nc2sc(CC)cc2c1=O | -12.0% |
| Cc1oc2c(c1C(=O)c1ccccc1)C(=O)C(=O)c1ccccc1-2 | ? |
| O=C(Nc1ccccc1-c1nnc(SCc2ccccc2Cl)o1)c1ccccc1 | ? |
| CC(C)CNC(=O)c1cc(-c2ccco2)on1 | ? |
| CS(=O)(=O)N1CCN(c2ccc(NC(=O)C(c3ccccc3)c3ccccc3)cc2)CC1 | 3.8% |
| Cc1cc(C)cc(NS(=O)(=O)c2ccc3[nH]c(=O)[nH]c3c2)c1 | -11.6% |
| Cc1cc(C)c2nc3s/c(=C/c4ccccc4)c(=O)n3c2c1 | 5.01µM* |
| O=c1[nH]cnc2c1C1(CCCC1)Cc1ccccc1-2 | -8.4% |
| CCN1CCN(C(c2cc(OC)c(OC)c(OC)c2)c2nnnn2C(C)C)CC1 (stereo not drawn) | -5.2% |
| COC1(OC)N=C(N)C2(C#N)C(c3ccc(C)cc3)C12C#N (stereo not drawn) | -14.6% |
| N#Cc1ccc(C(=O)NCC(c2ccco2)N2CCCCC2)cc1 (stereo not drawn) | -4.4% |
| CC(=O)Nc1ccc(NC(=O)/C=C/c2cccc(C(F)(F)F)c2)cc1 | -15.0% |
| O=S(=O)(NC1=NCCC1)c1cccc(NC(=S)NCCc2ccccc2)c1 | -10.7% |
| CC(C)(C)NCC(O)COc1nsnc1N1CCOCC1 (stereo not drawn) | -8.9% |
| COc1ccc(Sc2nnc(Cc3ccccc3)c3ccccc23)cc1 | -14.5% |
| COCCn1c(C)cc(C(=O)CSc2nnc(C)s2)c1C | -17.9% |
| O=C(NCCCN1CCCCC1)c1ccc2c(c1)NC(=O)C(N1CCCCC1)S2 (stereo not drawn) | -20.9% |
| CCc1ccc(NC(=O)CSc2nc3cc(C(=O)OC)ccc3c(=O)n2Cc2ccco2)cc1 | -15.2% |
| CCn1c(SCC(=O)NCc2ccco2)nnc1-c1ccc(N)cc1 | -14.0% |
| COc1ccc2[nH]cc(C(=O)CN3CCN(C/C=C/c4ccccc4)CC3)c2c1 | -25.2% |
| COc1nc(OC)nc(N2CCC(C(=O)NCc3ccc(F)cc3)CC2)n1 | -8.6% |
| Cn1c(SCC(=O)c2c(N)n(C)c(=O)n(C)c2=O)nnc1-c1ccc(F)cc1 | -5.7% |
| Cc1nc2[nH]c(=O)c3c(n2n1)NC1=C(C(=O)CC(C)(C)C1)C3c1ccccc1 (stereo not drawn) | ? |
| Cc1nc(CNS(=O)(=O)c2cc(F)ccc2F)cs1 | 5.3% |
| CCOC(=O)CC(=O)CSc1nnc2c(n1)[nH]c1ccccc12 | -22.1% |
| COc1cc(OC)cc(C(=O)NNc2nc3cc4c(cc3s2)OCO4)c1 | -12.2% |
| O=C(NN=C1CCCC1)c1ccn[nH]1 | -7.8% |
| COC(=O)NCC(c1cccnc1)N1CCN(c2ccccc2F)CC1 (stereo not drawn) | -8.2% |
| CC(=O)NS(=O)(=O)c1ccc(NC(=O)C2c3ccccc3Oc3ccccc32)cc1 | 0.4% |
| C=CCNC(=O)C(C(=O)OCC)C1CCCCC1 (stereo not drawn) | 0.7% |
| O=C(N/N=C/c1c(Cl)cccc1Cl)c1ccc(F)cc1 | -2.9% |
| COc1ccc(OC)c(S(=O)(=O)n2nc(C)cc2C)c1 | -16.6% |
| C/C(=N\Nc1nc2ccccc2[nH]1)c1ccc(C)o1 | -4.5% |
| CC1CCN(CC[C@H]2CCCN2S(=O)(=O)c2cccc(O)c2)CC1 | -15.1%&-2.3% |
| CNS(=O)(=O)c1ccc(NCC2COc3ccccc3O2)c([N+](=O)[O-])c1 (stereo not drawn) | -19.5% |
| Cc1ccc(CC(=O)Nc2nncs2)cc1 | -11.8% |
| O=C(CSCc1cnn(-c2ccccc2)c1-n1cccc1)NCC1CCCO1 (stereo not drawn) | ? |
| O=C(CSc1nnc(CNC(=O)c2c(F)cccc2Cl)o1)NCc1ccc2c(c1)OCO2 | -13.3% |
| CC[C@H]1C(c2ccc(F)cc2)=NN(c2ccccc2)[C@@H]1CO | ? |
| Cc1ccc(Nc2nc3c(c(=O)[nH]c(=O)n3C)n2Cc2ccc(F)cc2)cc1 | -10.8% |
| C=CCN1C(=O)/C(=C2/C(=O)N(CC(=O)O)c3ccccc32)S/C1=N/c1nccs1 | -25.5% |
| O=C1c2[nH]nc(-c3ccccc3O)c2C(c2cccc(Cl)c2)N1CC1CCCO1 (stereo not drawn) | -12.6% |
| COc1ccccc1N1CCN(Cc2cc(Br)c(O)c3ncccc23)CC1 | -5.0% |
| CCc1nnc(NC(=O)CCC(=O)NCC2CCCO2)s1 (stereo not drawn) | -8.2% |
| O=C(NCc1ccccc1F)c1cccs1 | ? |
